High-throughput results as filed in PubChem BioAssay.
Autofluor counter: flagged as autofluorescent in microsphere protease counterscreen; actives 3.1% (n = 360,000); compound autofluorescence counterscreen, microsphere flow cytometry; active compounds read high; fluorescence intensity (test concentration not listed);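 active = at least 3 SD above the mean of all compounds, about 16000 in these data; inconclusive = too few beads counted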;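 note: 100 nL of 1 mM stock went into each well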
BJeLR lethal: MLPCN primary cell-based screen for lethality selective to Ras in HRASV12 cells; BJeLR (HRASV12) viability, CellTiter-Glo ATP luminescence, 48 h; reference of the scale not given here; inhibition, % (no concentration beside the values); actives 0.17% (n = 300,000); AID 1554, 2009;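 active = replicate mean above 50%; inconclusive = above 50% but judged a plate artefact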;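 note: 50 nL library stock added to about 25 µL; numbers are from one replicate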
ugtP null kill: growth inhibition of ugtP-null S. aureus, primary screen, RN4220 ugtP deletion, OD600; AID 1259309, 2017; 16 h; some inactives read as strong as hits; growth inhibition, % (no concentration beside the values); actives 0.54% (n = 330,000);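 active = z-score under -3 and OD600 up to 0.15 on both plates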;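 note: plate controls were untreated wells for no effect and antibiotic for full effect; wells of about 80 µL received 100 nL stock; the first replicate is given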
RN4220 kill: growth inhibition of S. aureus RN4220, primary screen, OD600; 16 h; inhibition, % (no concentration beside the values); actives 0.33% (n = 330,000); AID 1259311, 2017;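 active = z-score of -3 or lower and OD600 up to 0.18 on both plates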;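 note: plate controls were untreated cells for no effect and reference antibiotic for full effect; stock transfer was 100 nL into about 80 µL; one replicate is shown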
Mtb hypoxia rep: PubChem AID 1159583 | fluorescence inhibition, % (concentration not given with the values) | M. tuberculosis hypoxia-regulated fluorescent reporter, fluorescence | actives 0.1% (n = 300,000);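 active = 35 to 45% if threefold the growth effect, above 45% if 1.5-fold the growth effect; inactive = the rest, general growth blockers included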;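 note: wells of about 50 µL received 100 nL stock; 0% = vehicle wells and 100% = reference inhibitor wells; whole bacteria with a GFP reporter of the hypoxia response; strong numbers were not always called active; many hits fall short of the cut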
PrP UTR inh: inhibition of PrP 5' UTR reporter expression | cell-based PrP 5' UTR mRNA reporter, plate reader | actives 0.35% (n = 340,000) | inhibition, % (no concentration beside the values) | AID 488862, 2010;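 active = every replicate at 50% or more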;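 note: 0 = median of the neutral control wells; tested in H4 reporter cells; numbers are from one replicate; inactives centre near -14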
Mtb hypoxia rep growth: further read-out of Mtb hypoxia rep, marked with its call; growth inhibition, %; measured here: M. tuberculosis growth (absorbance);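 0% = vehicle and 100% = reference antibiotic; read after six days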
* = called active by the depositor; u = inconclusive; x = no result given.

Results follow in this order: Autofluor counter	BJeLR lethal	ugtP null kill	RN4220 kill	Mtb hypoxia rep	Mtb hypoxia rep growth	PrP UTR inh
1. N#Cc1cccc2cnccc12
→ 4471	5	8	4.7	0	5	-3
2. Cc1ccc(NCc2nnc(SCC(=O)O)n2-c2ccc(C)cc2)cc1
→ 3359	8	-3	-1.4	2	0	-25
3. CC(=O)N1CCOc2ccc(S(=O)(=O)NCc3ccc(Cl)cc3)cc21
→ 4196	6	1	0.0	1	-1	-20
4. CC(=O)Nc1c(O)nc(SCc2ccccc2C#N)[nH]c1=O
→ 2102	5	4	2.4	6	4	-4
5. Cc1cc(C=C2C(=N)N3N=C(C(C)C)SC3=NC2=O)c(C)n1-c1ccccc1
→ x	x	3	3.7	-1	4	x
6. Cc1ccc(S(=O)(=O)CCC(=O)Nc2cccc(Cl)c2)cc1
→ 3977	-3	2	3.0	1	2	-2
7. CCC(C)NC(=O)C1CCN(S(=O)(=O)c2cccc3nonc23)CC1 (stereo unspecified)
→ 3467	-2	2	2.9	8	7	-24
8. O=C(C1CCCN(S(=O)(=O)Cc2ccccc2)C1)N1CCCCC1 (stereo unspecified)
→ 2236	-6	13	3.7	x	x	-10
9. CCCn1c(C)cc(C(=O)COc2ccc(-c3nnco3)cc2)c1C
→ 4833	1	7	4.5	3	5	-27
10. Cc1nnc2c3ccccc3c(-c3ccc(O)cc3)nn12
→ 2433	-2	-6	-4.0	12	7	-11
11. CC(CC(=O)Nc1cc(C)ccn1)=NNC(=O)c1cccc(C)c1O
→ x	x	-9	-6.7	-4	2	x
12. O=C(CSc1ccc2ccccc2c1)N1CCN(c2ccc(O)cc2)CC1
→ 4803	-8	5	7.4	-5	6	-22
13. O=C(NC1CCN(C(=S)Nc2ccc(Cl)cc2)CC1)c1ccco1
→ 3957	-13	0	0.6	3	1	-57
14. CC(=O)Nc1ccc(S(=O)(=O)N/N=C/c2ccc(C)s2)cc1
→ 2536	-1	x	x	x	x	-66
15. O=C(COC(=O)/C=C/c1ccco1)NCCc1ccccc1
→ 4266	-6	3	-1.0	6	2	-21
16. C=C(C)CNC(=O)C1CCC(=O)N(CCCc2ccccc2)C1 (stereo unspecified)
→ 3960	-12	x	x	x	x	-13
17. CCOc1ncccc1C(=O)OCC(=O)NCc1ccccc1
→ 4081	x	0	6.3	14	6	-1
18. CC1CC(=O)N(CC(=O)Nc2ccccc2F)c2ccccc2S1(=O)=O (stereo unspecified)
→ 5797	-5	15	5.7	14	10	-17
19. O=C(Cn1cnc2ccccc2c1=O)OCCCCN1C(=O)c2ccccc2C1=O
→ 23990*	2	1	3.9	2	4	-17
20. O=C(c1ccc(Oc2ccccc2)cc1)c1nc2c(n1O)CCCC2
→ 23776*	7	70	9.3	4	-1	-28

A second format for part of the listing above:
[13] O=C(NC1CCN(C(=S)Nc2ccc(Cl)cc2)CC1)c1ccco1
[14] CC(=O)Nc1ccc(S(=O)(=O)N/N=C/c2ccc(C)s2)cc1
[19] O=C(Cn1cnc2ccccc2c1=O)OCCCCN1C(=O)c2ccccc2C1=O
[6] Cc1ccc(S(=O)(=O)CCC(=O)Nc2cccc(Cl)c2)cc1
[16] C=C(C)CNC(=O)C1CCC(=O)N(CCCc2ccccc2)C1 (stereo unspecified)
[12] O=C(CSc1ccc2ccccc2c1)N1CCN(c2ccc(O)cc2)CC1
screen / no.	13	14	19	6	16	12
Autofluor counter	3957	2536	23990*	3977	3960	4803
BJeLR lethal	-13	-1	2	-3	-12	-8
ugtP null kill	0	x	1	2	x	5
RN4220 kill	0.6	x	3.9	3.0	x	7.4
Mtb hypoxia rep	3	x	2	1	x	-5
Mtb hypoxia rep growth	1	x	4	2	x	6
PrP UTR inh	-57	-66	-17	-2	-13	-22

Entries above with an aryl thioether with sulfur outside any ring:
Results follow in this order: Autofluor counter	BJeLR lethal	ugtP null kill	RN4220 kill	Mtb hypoxia rep	Mtb hypoxia rep growth	PrP UTR inh
2. Cc1ccc(NCc2nnc(SCC(=O)O)n2-c2ccc(C)cc2)cc1
→ 3359	8	-3	-1.4	2	0	-25
4. CC(=O)Nc1c(O)nc(SCc2ccccc2C#N)[nH]c1=O
→ 2102	5	4	2.4	6	4	-4
12. O=C(CSc1ccc2ccccc2c1)N1CCN(c2ccc(O)cc2)CC1
→ 4803	-8	5	7.4	-5	6	-22

Other entries
Results follow in this order: Autofluor counter	BJeLR lethal	ugtP null kill	RN4220 kill	Mtb hypoxia rep	Mtb hypoxia rep growth	PrP UTR inh
21. CC(=O)Nc1nonc1-c1nc2ccccc2n1CCC(C)C
→ u	11	0	-15	2	4	-10
22. Cn1c2ccccc2c2ncn(CCN3CCOCC3)c(=O)c21
→ 3579	0	-1	1.3	18	12	-17
23. CC(C)Nc1nc(Cl)nc(NN(C)c2nc(N(C)C)nc(N(C)C)n2)n1
→ 1993	2	20	2.9	2	4	-2
24. O=C(NCc1n[nH]c(=S)n1-c1ccccc1)c1ccc(S(=O)(=O)N2CCOCC2)cc1
→ 8510	-3	3	2.9	11	1	-30
25. COc1cc(OC)cc(C(=O)N[C@H](C(=O)OCC(=O)Nc2ccc(C(C)C)cc2)C(C)C)c1
→ 2423	-6	-9	-8.2	6	8	-6
26. CCn1c(COc2ccccc2)nnc1SCC(=O)Nc1cc(C)ccc1OC
→ 10154	-8	-3	2.8	10	8	-30
27. CN1C[C@H](C(=O)NC2(C)OC3(O)[C@@H]4CCCN4C(=O)[C@H](Cc4ccccc4)N3C2=O)CC2c3cccc4[nH]cc(c34)C[C@H]21 (stereo partly specified)
→ 6515	6	x	x	x	x	-8
28. Cc1ccc(S(=O)(=O)CC(=O)Nc2nnc(C(C)(C)C)s2)cc1
→ 3832	9	12	2.7	10	-1	-16
29. COC(=O)c1cccc(NC(=O)Cc2nc(-c3ccccc3)sc2-c2ccc(C)cc2)c1
→ 2043	-12	-11	-6.4	-3	-3	-21
30. Cc1cc2cc(CNC(=O)c3ccc(S(=O)(=O)N(C)C)cc3)ccc2n1C
→ 1889	-9	4	12	-9	15	5
31. Cc1ccsc1/C=N/NC(=O)C(=O)NCC(C)C
→ 3998	-3	x	x	x	x	-42
32. Cc1cc(C(=O)N2CCN(C/C=C/c3ccccc3)CC2)no1
→ 19463*	-1	4	1.9	1	-1	4
33. Cc1cc(Cl)ccc1OCCCC(=O)N1CCCc2ccccc21
→ 9546	-9	4	9.5	17	4	-15
34. CCC1(c2ccccc2)NC(=O)N(CC(=O)NC2(C#N)CCCCC2)C1=O (stereo unspecified)
→ 4351	-13	10	2.5	1	4	-8
35. O=C(NC(=S)Nc1cccc(C(F)(F)F)c1)c1ccc2nonc2c1
→ x	-2	23	2.8	8	15	x
36. CN1CCN(c2ccc(NC(=O)N3CCc4ccccc43)cc2)CC1
→ 3197	-6	3	-3.0	4	1	64*
37. CCC(C)(C)NC(=O)C1c2ccccc2Oc2ccccc21
→ 4387	0	-1	2.1	-3	-2	-24
38. O=c1n(Cc2ccc(Cl)cc2)c2sc3c(c2c2ncnn12)CCCC3
→ 4969	3	-29	-7.4	x	x	-12
39. CCCCOc1ccc(Br)cc1/C(C)=N/NC1=NCCN1
→ 2940	52*	x	x	x	x	-40
40. O=C(NCc1ccncc1)c1ccc(Br)cc1
→ 22240*	4	0	4.5	18	14	-15
41. Cc1sc(-n2c(C)cc(C=O)c2C)c(C(=O)O)c1C
→ 10272	17	1	3.3	1	4	10
42. O=S(=O)(c1ccc2nc(Cc3cccc(C(F)(F)F)c3)[nH]c2c1)N1CCOCC1
→ 6643	-2	5	-1.9	13	5	-8
43. O=C(Nc1cc(S(=O)(=O)N2CCOCC2)ccc1N1CCOCC1)c1cnccn1
→ 2242	7	2	5.4	-5	-6	-17
44. COc1ccc(NC(=O)COC(=O)c2c3c(nc4ccccc24)CCCC3)cc1
→ 6638	-14	-13	-1.2	1	3	-32
45. O=C(O)c1ccc(N/N=C/c2cn(Cc3ccc(F)cc3)c3ccccc23)cc1
→ 3562	4	x	x	x	x	-7
46. COCCCNC(=O)CCc1c(C)nc2c(c(C)nn2-c2ccccc2)c1C
→ 2931	6	6	1.8	2	-8	-10
47. C/C(=C\C(=O)O)C(=O)Nc1nccs1
→ 4082	7	-5	3.5	x	x	-15
48. CN(C)P1(N(C)C)=NC(C(F)(F)F)=NC(C(F)(F)F)=N1
→ 6439	2	1	0.9	8	1	-24
49. CCOc1cc(/C=C2/C(=O)ON=C2C)ccc1O
→ 3633	-25	5	4.4	9	6	-17
50. CC1(C)COC(c2ccc(F)c([N+](=O)[O-])c2)=N1
→ 2605	5	2	2.4	4	2	-43
51. N/C(=N/[N+](=O)[O-])N1CCN(C(=O)Oc2ccc([N+](=O)[O-])cc2)CC1
→ 3730	-9	x	x	x	x	-19
52. Cc1cc(C)n(-c2ncnc3sc4c(c23)CC(C)CC4)n1 (stereo unspecified)
→ 5978	-9	6	1.3	15	0	-27
53. CN(C)c1ccc(CN(C(=O)c2cccs2)C2CCS(=O)(=O)C2)cc1 (stereo unspecified)
→ 5836	7	4	4.2	0	-6	-4
54. O=C(Nc1cccc(C(F)(F)F)c1)c1ccco1
→ 23988*	4	-2	5.4	1	2	-36
55. Cc1ccc([C@@H]2[C@@H]3C(=O)N(C)C(=O)[C@@H]3[C@]3(C)C(=O)N(Cc4ccccn4)CC(=O)N23)o1
→ 3418	3	x	x	x	x	-13
56. NC(Cc1cccc2nsnc12)C(=O)O (stereo unspecified)
→ 3067	-7	10	5.5	4	2	-6
57. O=C(CC12CC3CC(CC(Br)(C3)C1)C2)Nc1cccc(S(=O)(=O)NC2=NCCC2)c1
→ 4922	2	7	1.8	15	5	-4
58. NNC(=O)c1ccc(Cn2cc(Br)c(N)n2)cc1
→ 5402	-2	4	3.2	-5	3	-17
59. COc1ccc(S(=O)(=O)N2CCN(C)CC2)cc1C(=O)Nc1ccccc1
→ 3172	27	4	1.8	-3	-5	0
60. COC(=O)CCCCCCCCC(O)CN1CCCCC1 (stereo unspecified)
→ 2496	-1	2	2.2	11	8	-22
61. COc1ccc(NC(=O)COC(=O)c2ccc(-n3cnnn3)cc2)c([N+](=O)[O-])c1
→ 3732	x	0	0.7	-5	5	-6
62. O=C(COc1ccc(Br)cc1Br)NC1CCCC1
→ 3436	11	5	-0.1	5	13	-40
63. COC(=O)[C@@]1(Cc2ccc(F)cc2)[C@H]2c3cc(C(=O)N4CCCC4)n(CCCNc4ncc(C(F)(F)F)cc4Cl)c3C[C@H]2CN1C(=O)c1ccccc1
→ 4064	-11	x	x	x	x	-33
64. Cn1ccsc1=NC(=O)c1ccc(Cl)cc1
→ 4526	25	-1	1.3	14	22	-97
65. O=S(=O)(c1ccc(Br)s1)N1CCN(Cc2ccc3c(c2)OCO3)CC1
→ 3439	-4	-1	2.2	10	11	-15
66. O=C(NCC(c1ccco1)N1CCN(c2ccccc2F)CC1)c1ccc2c(c1)OCO2 (stereo unspecified)
→ x	2	4	-1.5	1	6	-24
67. COc1cc(COC(=O)c2cnc(C)cn2)c(OC)cc1Br
→ 3329	-9	1	1.5	9	-8	-16
68. Cc1nnc(C)n1/N=C/c1cc(Br)cc(Br)c1O
→ 4631	-6	x	x	x	x	-5
69. Cc1cc(C)c2c(N)c(C(=O)Nc3ccccc3F)sc2n1
→ 4135	-11	3	3.7	-2	4	-84
70. CCCc1nnc(NC(=O)CCC(=O)N2CCN(C3CCCC3)CC2)s1
→ 5337	12	3	-4.9	-8	-15	-5
71. COc1ccc(OC)c2sc(NC(=O)C(C)C)nc12
→ 6146	-7	-10	16	2	0	-11
72. COC(=O)c1oc2ccc(OC)cc2c1N
→ 5572	-2	-1	3.9	5	17	-3
73. CCOC(=O)C1C(=O)C=C(C)C(C(=O)OCC)C1c1ccc(OC)cc1 (stereo unspecified)
→ 10460	0	1	2.8	5	7	-7
74. Cc1ccc(C2=NOC(=O)/C2=C\c2ccc(C)o2)cc1
→ 6480	-3	-1	5.2	-8	3	-18
75. O=C(Nc1cccc(S(=O)(=O)C(F)F)c1)c1ccc(S(=O)(=O)N2CCCC2)cc1
→ 4608	7	-3	3.6	7	0	-8

No enrichment for hits; overall some 4.1% were active at least once.
